UUG fidelity: modulators of start codon recognition fidelity in yeast. S. cerevisiae UUG-firefly luciferase reporter, luminescence/redox ratio. activity score, % at 18.7 µM. 0.13% of 350,000 active. AID 602363;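 active = replicate mean at a twofold rise or more, about +100% in these data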;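 note: firefly luciferase made from a UUG start codon reports start codon fidelity; reporter light over untreated wells divided by growth signal over untreated wells; some hits fall short of that in this replicate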
PABP FP inh: blocks human PABP binding to poly(A) RNA. P11940. fluorescence polarization. inhibition, % at 35 µM. 1% of 290,000 active;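 active = 50% or more with normal probe brightness, or confirmed in later tests; about a fifth of its hits are not listed in these tables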;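 note: calls also rest on retests at 20 µM and on dose response follow-up; controls were probe without protein and protein plus probe with vehicle; some compounds called inactive have numbers as strong as hits; many hits fall short of the cut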
eIF4H inh: inhibitors of RNA binding by human eIF4H; AID 2012; eIF4H fluorescence polarization binding assay; inhibition, % at 35 µM; 0.94% of 290,000 active;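 active = 50% or more with normal probe brightness, or confirmed in later tests; about a fifth of its hits are not listed in these tables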;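 note: calls also rest on retests at 20 µM and on dose response follow-up; 0% = protein and probe with vehicle and 100% = probe without protein; strong numbers were not always called active; many hits fall short of the cut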
Env fusion inh: HIV envelope-mediated fusion inhibition. HeLa-JRFL Env/CEM21 cell fusion, luciferase. inhibition, % at 12.3 µM. 1.1% of 360,000 active. AID 651610;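 active = mean replicate inhibition score of at least 50 and every replicate individually at or above 50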;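 note: 0% = plate neutral controls and 100% = maraviroc near 300 nM; one replicate is shown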
MT1-MMP act inh: MT1-MMP (human) activation inhibition; HT1080 RFP-PRO-GFP cells, GFP/RFP ratio fluorescence, overnight; percent of plate control window, DMSO zero; AID 651647; 0.061% of 360,000 active; GFP/RFP ratio change, % at 20 µM;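 active = GFP/RFP ratio change of at least 30% with cell ATP level not reduced by more than half and red fluorescence within 50% of control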; note: strong numbers were not always called active
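Assay system: HT1080 RFP-PRO-GFP cells. Benchmarks: DMSO vehicle wells and RFP-L50D-GFP reporter cell wells. Times: overnight cell settling, then overnight compound exposure, 37 °C, 5% CO2. Compound: 20 µM single dose, 1% DMSO. Read-out basis: GFP/RFP fluorescence ratio.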
MT1-MMP act inh RFP: also measured in MT1-MMP act inh; calls as there; RFP signal change, %; measured here: RFP expression control read;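 0 = vehicle wells; hits needed this value within 50% of zero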
* marks the source's active call; other numbers are inactive results. An excerpt, so the mix of outcomes need not match the whole.

What do the screens show for `COc1cc2ncnc(Nc3cccc(Cl)c3)c2cc1OC`?
PABP FP inh: 12; eIF4H inh: 4

What do the screens show for `CCC(=O)N1CCN(c2ccc(-n3c(=O)ccc4cnc5ccc(-c6cnc7ccccc7c6)cc5c43)cc2C(F)(F)F)CC1`?
Env fusion inh: 59*

What do the screens show for `Oc1ccc2c(c1)OCC1(O)Cc3cc(O)c(O)cc3C21` (stereo not given)?
UUG fidelity: -24; MT1-MMP act inh: 3; MT1-MMP act inh RFP: 56

Arranged by molecular weight (highest first): some entries from above.
What do the screens show for `CCC(=O)N1CCN(c2ccc(-n3c(=O)ccc4cnc5ccc(-c6cnc7ccccc7c6)cc5c43)cc2C(F)(F)F)CC1`?
Env fusion inh: 59*

What do the screens show for `COc1cc2ncnc(Nc3cccc(Cl)c3)c2cc1OC`?
PABP FP inh: 12; eIF4H inh: 4

What do the screens show for `Oc1ccc2c(c1)OCC1(O)Cc3cc(O)c(O)cc3C21` (stereo not given)?
UUG fidelity: -24; MT1-MMP act inh: 3; MT1-MMP act inh RFP: 56

2 entries drawn at random from those above, as already listed:
What do the screens show for `COc1cc2ncnc(Nc3cccc(Cl)c3)c2cc1OC`?
PABP FP inh: 12; eIF4H inh: 4

What do the screens show for `Oc1ccc2c(c1)OCC1(O)Cc3cc(O)c(O)cc3C21` (stereo not given)?
UUG fidelity: -24; MT1-MMP act inh: 3; MT1-MMP act inh RFP: 56

Compound activity from PubChem BioAssay.
